Assay outcomes as filed in PubChem BioAssay.
eIF4H FP inh = inhibitors of RNA binding by human eIF4H. Q15056. eIF4H fluorescence polarization binding assay. inhibition, % at 35 µM. 0.94% of 290,000 active;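 active = 50% or more with normal probe brightness, or confirmed in later tests; about a fifth of its hits are not listed in these tables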;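 note: calls also rest on retests at 20 µM and on dose response follow-up; 0% = protein and probe with vehicle and 100% = probe without protein; strong numbers were not always called active; many hits fall short of the cut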
MT1-MMP act inh = blocks activation of human MT1-MMP. P50281. 0.061% of 360,000 active. GFP/RFP ratio change, % at 20 µM. HT1080 RFP-PRO-GFP cells, GFP/RFP ratio fluorescence, overnight; percent of plate control window, DMSO zero. AID 651647;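 active = GFP/RFP ratio change of at least 30% with cell ATP level not reduced by more than half and red fluorescence within 50% of control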; note: strong numbers were not always called active
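Assay system: HT1080 cells carrying an RFP-PRO-GFP reporter | Dosing: Single dose of 20 µM compound, 1% DMSO final | Incubation: Cells overnight before dosing, compound overnight, 37 °C, 5% CO2 | Evaluation: GFP/RFP fluorescence ratio | Control set: DMSO and RFP-L50D-GFP cell wells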
Yeast UUG start = yeast start codon fidelity modulation; S. cerevisiae UUG-firefly luciferase reporter, luminescence/redox ratio; activity score, % at 18.7 µM; 0.13% of 350,000 active; AID 602363;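 active = replicate mean at a twofold rise or more, about +100% in these data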;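 note: firefly luciferase made from a UUG start codon reports start codon fidelity; reporter light over untreated wells divided by growth signal over untreated wells; some hits fall short of that in this replicate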
Env fusion inh = inhibitors of HIV Env-mediated cell fusion; HeLa-JRFL Env/CEM21 cell fusion, luciferase; inhibition, % at 12.3 µM; 1.1% of 360,000 active; AID 651610;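 active = mean replicate inhibition score of at least 50 and every replicate individually at or above 50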;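 note: 0% = plate neutral controls and 100% = maraviroc near 300 nM; one replicate is shown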
PABP polyA inh = blocks human PABP binding to poly(A) RNA; P11940; fluorescence polarization; inhibition, % at 35 µM; 1% of 290,000 active;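 active = 50% or more with normal probe brightness, or confirmed in later tests; about a fifth of its hits are not listed in these tables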;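 note: calls also rest on retests at 20 µM and on dose response follow-up; controls were probe without protein and protein plus probe with vehicle; some compounds called inactive have numbers as strong as hits; many hits fall short of the cut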
Target sequence (P11940 whole entry, looked up): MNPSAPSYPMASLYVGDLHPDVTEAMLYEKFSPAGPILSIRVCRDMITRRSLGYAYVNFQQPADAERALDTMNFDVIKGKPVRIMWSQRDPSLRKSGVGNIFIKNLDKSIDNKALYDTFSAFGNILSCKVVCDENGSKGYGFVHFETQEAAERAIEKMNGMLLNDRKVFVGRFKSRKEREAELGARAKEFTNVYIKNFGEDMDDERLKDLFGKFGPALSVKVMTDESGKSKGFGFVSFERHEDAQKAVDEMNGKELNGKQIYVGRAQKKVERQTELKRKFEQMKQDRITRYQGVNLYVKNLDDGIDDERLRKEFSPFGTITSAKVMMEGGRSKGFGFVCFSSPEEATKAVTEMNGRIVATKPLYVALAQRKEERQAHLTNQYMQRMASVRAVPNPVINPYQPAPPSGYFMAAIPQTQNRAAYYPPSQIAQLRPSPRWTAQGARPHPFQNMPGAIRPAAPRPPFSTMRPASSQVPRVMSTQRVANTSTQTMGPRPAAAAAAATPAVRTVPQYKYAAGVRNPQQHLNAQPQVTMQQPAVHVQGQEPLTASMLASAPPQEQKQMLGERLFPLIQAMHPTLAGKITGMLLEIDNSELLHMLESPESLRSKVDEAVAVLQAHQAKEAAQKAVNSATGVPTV
Rce1 inhib = inhibitors of yeast Ras-converting enzyme | 0.27% of 290,000 active | yeast membranes, quenched prenylated peptide cleavage fluorescence | Q03530 | calls only;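 active = fall in fluorescence gain of 50% or more versus controls, with final raw signal at or below 3038400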;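 note: plate controls were neutral control wells for no effect and wells lacking membranes for full effect; tested at 10 µM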
CSC inhib = cancer stem cell inhibition. cancer stem cell-like cells viability, luminescence. inhibition, % at 7.5 µM. 1.1% of 300,000 active. AID 2717;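 active = mean at 75% or more and at least half the replicates too; tested in HMLE shEcad cells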;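 note: 0% = median of negative and 100% = median of positive control wells; the first replicate is given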
MT1-MMP act inh RFP = recorded beside MT1-MMP act inh, whose call it bears; RFP signal change, %; measured here: RFP expression control read;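 0 = vehicle wells; hits needed this value within 50% of zero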
Active calls of the source: *; i = inactive; . = not tested or not shown; & = joins results of further samples; [ ] = remark or other dose.

SMILES | eIF4H FP inh | MT1-MMP act inh | MT1-MMP act inh RFP | Yeast UUG start | Env fusion inh | PABP polyA inh | Rce1 inhib | CSC inhib
CCOC(=O)C1=CCN(S(=O)(=O)c2ccccc2Cl)C1c1cccc(C)c1 (centres undefined) | . | 0 | -6 | -8 | 10 | . | . | .
Cc1cccc(NC(=O)CN2C(=O)N/C(=C/c3cc(C)n(-c4cccnc4)c3C)C2=O)c1 | 3 | 1 | 3 | . | 10 | -12 | i | 3
Cc1cc2c(s1)CCCCC(=O)N2 | 50 | -7 | 4 | -18 | . | -12 | i | -1
CN(Cc1ccc(OC(F)F)cc1)C(=O)c1ccc2c(=O)n3c(nc2c1)CCC3 | . | -3 | 3 | -12 | -27 | . | i | -2
COc1ccc(CNC(=O)C2CCCN(S(=O)(=O)c3c(C)noc3/C=C/N(C)C)C2)cc1 (centres undefined) | -15 | -6 | 2 | -11 | 5 | 16 | i | 6
O=C(c1cccc(S(=O)(=O)N2CCc3ccccc3C2)c1)N1CCN(c2ccc(O)cc2)CC1 | 21 | -10 | -14 | . | 23 | 10 | i | 156*
CCn1nc(NS(=O)(=O)c2ccccc2)c2cc3cc(C)ccc3nc21 | 6 | 6 | 1 | -7 | 4 | 14 | i | -11
COCC(=O)N(Cc1cc2ccccc2[nH]c1=O)c1ccc(OC)cc1 | 2 | 1 | 2 | -17 | . | -10 | i | 2
c1ccc(COc2ncnc3c2ncn3CCCN2CCN(Cc3cccc4ccccc34)CC2)cc1 | . | -7 | -23 | -4 | 9 | . | . | .
COC(=O)c1c(N2C(=O)CC(Sc3ccccc3C(=O)O)C2=O)sc(C)c1C (centres undefined) | -4 | -1 | 2 | . | 12 | 4 | i | -15
Cn1c(NNC(=O)c2cccc3ccccc23)cc(=O)n(C)c1=O | -18 | 3 | 5 | 12 | -32 | -5 | i | -8
O=C(CSc1nc2ccccc2s1)Nc1cc(C(=O)O)cc(C(=O)O)c1 | 10 | 3 | 4 | . | 11 | -16 | i | 0
CCN(CCCNC(=O)CC1Oc2ccc(C)cc2NC1=O)Cc1ccccc1 (centres undefined) | -2 | 3 | 4 | -10 | -15 | -7 | i | -7
CCOC(=O)c1ccc(CNCc2ccc(C)cc2)cc1 | -5 | -4 | 2 | . | -7 | 1 | i | -3
CC(C)(C)OC(=O)NCC(=O)N1CCC(C(=O)O)CC1 | -3 | . | . | -5 | . | 2 | i | 5
Cc1cc(CN2CCCC(CNC(=O)c3ccc(F)cc3)C2)cc(C)c1O (centres undefined) | -12 | -5 | 3 | . | 16 | -7 | i | -1
COC(=O)c1sccc1NC(=O)c1cc(-c2ccc(C)cc2)nc2ccccc12 | -6 | 3 | 5 | . | . | -5 | i | 5
CCOc1ccc(N2CC(C(=O)Nc3nnc(SCCOC)s3)CC2=O)cc1 (centres undefined) | 5 | 0 | 0 | -9 | -10 | 5 | i | -34
COc1ccccc1N1CCN(C2CCCCC2NS(=O)(=O)c2ccc(Cl)cc2)CC1 (centres undefined) | -4 | -4 | -3 | -3 | . | 5 | i | 33
Cc1cc(=O)c2ccc(Cl)cc2[nH]1 | 10 | -7 | 0 | -8 | -3 | -4 | i | -4
CC(C)Cn1cnc2c(SCc3ccccc3F)nc(N)nc21 | . | 10 | -8 | -13 | -6 | . | . | .
C[C@H](CO)N1C[C@H](C)[C@@H](CN(C)Cc2ccc(C(=O)O)cc2)Oc2c(NS(=O)(=O)c3cn(C)cn3)cccc2C1=O | . | -2 | 3 | -7&-34 | -11[16.7 µM] | . | . | .
Cn1cccc1/C=N/N1CCN(Cc2ccccc2)CC1 | 0 | 1 | 0 | . | 7 | 7 | i | -17
O=C(CSc1ncn[nH]1)c1ccco1 | 43 | -2 | 3 | -17 | 35 | 28 | i | -2
CC(=O)CC(=O)Nc1ccc(Cl)cn1 | -2 | -3 | -2 | . | -11 | -2 | i | 0

Next structures.
SMILES | eIF4H FP inh | MT1-MMP act inh | MT1-MMP act inh RFP | Yeast UUG start | Env fusion inh | PABP polyA inh | Rce1 inhib | CSC inhib
CN(CC(=O)N1CCC(C(N)=O)CC1)S(=O)(=O)c1ccc2ccccc2c1 | -2 | 6 | 5 | -6 | 5 | 4 | i | -7
COc1ccc2cc3c(N)nn(C(=O)Cc4ccccc4OC)c3nc2c1 | -5 | -17 | -17 | -13 | 45 | -1 | i | 1
COC(=O)Cn1c(C)nc2c(sc3nc(C)cc(C)c32)c1=O | 3 | 6 | 4 | -19 | . | -1 | i | 13
Cc1onc(-c2ccccc2Cl)c1C(=O)NCc1ccc(N2CCCC2=O)cc1 | -4 | 1 | 4 | 4 | . | -3 | i | -3
CCn1ccnc1CNCc1ccc(OCC(O)CN(C)Cc2ccccc2)cc1 (centres undefined) | 1 | 0 | 0 | . | -1 | 16 | i | -2
O=C(Nc1ccccc1Cl)c1cc(=O)c2ccccc2o1 | 2 | -2 | -4 | -12 | -135 | 6 | i | -23
CN(C)S(=O)(=O)c1cccc(C(=O)Nc2cc(S(=O)(=O)N3CCOCC3)ccc2O)c1 | . | 0 | 0 | 9 | 4 | . | . | .
Cc1ccc(-c2nnn(Cc3nc4ccccc4s3)n2)cc1 | -6 | 0 | 2 | -3 | -53 | -9 | . | 5
CCOC(=O)Nc1ccc(C(=O)c2ccncc2)cc1 | -9 | 7 | -3 | -5 | 0 | 12 | i | 0
CCOC(=O)C(=O)Nc1cc(Cl)ccc1C | -2 | 3 | 7 | -13 | -2 | -10 | i | -1
O=C(CNS(=O)(=O)c1cccs1)N1CCc2ccccc2C1 | -6 | -1 | -1 | 3 | . | -10 | i | 2
COc1ccc(OCC(O)CN2CCN(CC(O)COc3ccc(OC)cc3)CC2)cc1 (centres undefined) | 11 | 2 | 0 | -13 | 2 | 5 | i | 2
COc1ccc(/C=N/NC(=O)Cn2nnc3ccccc32)cc1OC | -10 | 1 | 1 | . | 9 | -1 | i | -8
COc1ccc(N2CC(NC(=O)NCCC(C)C)CC2=O)cc1 (centres undefined) | 0 | 2 | 6 | . | -49 | 11 | i | .
C=C(C)c1cccc(C(C)(C)NC(=O)N2CCN(CC(N)=O)CC2)c1 | 5 | -1 | 3 | -6 | . | -2 | i | -7
COc1ccc(/C=N/NC(=O)CN2CCSCC2)c(OC)c1 | 12 | -1 | 4 | -21 | . | -1 | i | 36
Cc1ccccc1NC(=O)Cn1nnc2sc3c(c2c1=O)CC(C)(C)OC3 | -5 | 3 | 5 | . | -5 | -6 | i | -10
COc1ccc(N(C(=O)Cn2nnc(-c3ccc(F)cc3)n2)C(C)C(=O)NC2CCCC2)cc1 (centres undefined) | -5 | -5 | -4 | -11 | 3 | -10 | i | -38
COc1ccc(C2SCC(=O)N2CC23CC4CC(CC(C4)C2)C3)cc1 (centres undefined) | 0 | -5 | -8 | -10 | . | 28 | i | -9
O=C(COC(=O)c1ccccn1)Nc1ccc(S(=O)(=O)N2CCOCC2)cc1 | 2 | 0 | 0 | . | . | -8 | i | .
CCN1C2=NCCCN2c2ccccc21 | 2 | 2 | 4 | -15 | . | 8 | i | 5
C=CC(COCc1ccccc1)N(Cc1ccc(OC)cc1)S(=O)(=O)c1ccccc1Br (centres undefined) | -12 | -6 | -9 | -10 | 39 | -6 | i | 6
COc1cccc(NC(=O)CN(C)C(C)C(=O)Nc2cc([N+](=O)[O-])ccc2Cl)c1 (centres undefined) | 7 | -6 | -6 | . | 2 | -8 | i | 6
CC(NC(=S)NCCN1CCOCC1)C12CC3CC(CC(C3)C1)C2 (centres undefined) | -7 | 1 | -4 | . | 25 | -10 | i | -14
Cc1ccc(OCC(=O)N/N=C/c2ccncc2)cc1C | 2 | 2 | -3 | . | 14 | 1 | i | -9

Record cards, as listed above:
C=CC(COCc1ccccc1)N(Cc1ccc(OC)cc1)S(=O)(=O)c1ccccc1Br (centres undefined) in the list: eIF4H FP inh: -12; MT1-MMP act inh: -6; MT1-MMP act inh RFP: -9; Yeast UUG start: -10; Env fusion inh: 39; PABP polyA inh: -6; Rce1 inhib: i; CSC inhib: 6
COc1ccc(N2CC(NC(=O)NCCC(C)C)CC2=O)cc1 (centres undefined) in the list: eIF4H FP inh: 0; MT1-MMP act inh: 2; MT1-MMP act inh RFP: 6; Yeast UUG start: .; Env fusion inh: -49; PABP polyA inh: 11; Rce1 inhib: i; CSC inhib: .

Later entries:
SMILES | eIF4H FP inh | MT1-MMP act inh | MT1-MMP act inh RFP | Yeast UUG start | Env fusion inh | PABP polyA inh | Rce1 inhib | CSC inhib
O=S(CCc1ccncc1)Cc1ccccc1 (centres undefined) | -5 | -2 | -3 | 7 | . | -2 | i | 1
CCOc1ccc(/C=C(\C)C(=O)c2c(C)cc(C)[nH]c2=O)cc1 | -10 | 0 | 4 | -14 | -24 | 0 | i | -9
CC(=O)Nc1ccc(Nc2cc(C)nc3ccccc23)cc1 | . | 1 | -2 | -10 | 9 | . | i | 10
NC(=O)c1cccc(-c2ccnc3c2CC(C(=O)NCCc2ccccc2)O3)c1 (centres undefined) | . | -5 | -3 | -21 | -3 | . | . | .
CCn1c2ccccc2c2nnc(SCC(=O)Nc3ccc4c(c3)OCO4)nc21 | 10 | 8 | 4 | -17 | . | 3 | i | .
Cc1ccccc1CN(c1ccc(C(=O)NCCC2=CCCCC2)cc1)S(C)(=O)=O | -10 | -1 | -10 | -7 | -480 | -10 | i | 4
O=C(NCCO)c1cccc2c1C(=O)c1ccccc1-2 | -6 | 1 | 5 | . | . | 3 | i | 37
COc1cc(/C=N/n2c(C)nc3ccccc3c2=O)cc(OC)c1O | -9 | 0 | 3 | -16 | 1 | -6 | i | -8
O=C(NCCCNC(=O)c1ccccn1)c1ccc(F)cc1 | -5 | 1 | 0 | -8 | 12 | 1 | i | -3
COc1c2ccoc2nc2c(OC)c(OC[C@@H](O)C(C)(C)O)ccc12 | . | . | . | 1 | -21 | . | . | -6
Cc1ccc(-c2ccc(=O)n(CC(=O)NCCN(C)C)n2)cc1 | -6 | 7 | 7 | -11 | -12 | -16 | i | -2
Cc1ccccc1NC(=O)C(C)OC(=O)C1CCCO1 (centres undefined) | . | 2 | 6 | -21 | 38 | . | . | .
COc1cc(C(=O)NCc2ccc3c(c2)OCO3)ccc1OCc1c(C)noc1C | 6 | 6 | 3 | -12 | -88 | -4 | i | -12
CCCCOC(=O)Nc1ccc(C(=O)OC)cc1 | -4 | 5 | -8 | -16 | -93 | -2 | i | -2
Cc1ccccc1NC(=O)Cc1nc(CCl)cs1 | 4 | 0 | 0 | . | 18 | 2 | i | 11
CCN1C/C(=N\S(=O)(=O)/N=C2\CN(CC)C(=O)N2CC)N(CC)C1=O | 4 | 4 | 9 | -8 | -6 | 4 | i | -7
O=C(O)c1cccc(CSc2nnc(-c3ccc(Cl)cc3)o2)c1 | -7 | 1 | -3 | -3 | 34 | 6 | i | 3
Cc1nc2ccccn2c1C(=O)NC1CCCc2ccccc21 (centres undefined) | 3 | 1 | -27 | . | -21 | -4 | i | -2
O=C(CCCC(=O)OCC(=O)NC1CCCC1)Nc1ccccn1 | -7 | -6 | 1 | -21 | -43 | 0 | i | 5
Cc1cc(C)c(S(=O)(=O)NCc2cn3ccccc3n2)c(C)c1 | 6 | 0 | 0 | -13 | 1 | 11 | i | 0
COc1cc(NS(=O)(=O)c2c(C)[nH]c(C)c2C(=O)N2CCCCC2)cc(OC)c1OC | 7 | -7 | -4 | 4 | -6 | 4 | i | -3
COc1ccc(/C(O)=C2\C(=O)C(=O)N(CCN(C)C)C2c2cccc(OC)c2OC)cc1Cl (centres undefined) | -8 | -1 | 8 | -13 | . | 8 | i | -7
CC1CCCN(S(=O)(=O)c2ccc3c(c2)OCCO3)C1 (centres undefined) | . | 2 | 2 | -4 | 7 | . | . | .
O=C(NCCCCCCNC(=O)NCc1ccco1)NCc1ccco1 | 3 | . | . | . | . | 9 | i | 24
